TRPML1 agonist = qHTS for Agonists of the Human Mucolipin Transient Receptor Potential 1 (TRPML1) | Mucolipin-1 (Homo sapiens), Q9GZU1 | AID 624414, 2012 | TRPML1-expressing cells, Ca2+ dye fluorescence, FDSS; host cell line not named in the record; reference of the full effect not given here | activation, % (no concentration beside the values) | 410,000 tested, 0.12% active; in the data active = activation above about 50%; inconclusive = about 30% to 50%; inactive = below about 30%; further: 0% is about no effect; the text of the record puts the active cut at 80%
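Agonist activity was taken from a 110 s kinetic Ca2+ dye read on the FDSS after pinning compounds onto TRPML1-DL cells. The cells were seeded at 1,500/well with Tet inducer, incubated about 16 h, then dye-loaded at room temperature.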
Six1-Eya2 blk = qHTS Assay for Inhibitors of the Six1/Eya2 Interaction; 360,000 tested, 0.56% active; activity change, % (test concentration not listed); Homeobox protein SIX1 (Homo sapiens) + Protein phosphatase EYA2 (Homo sapiens), …; AlphaScreen GST-Six1/His-Eya2 binding, biochemical; active compounds read low; control for the full effect not named in the record; in the data active = activity change below about -65%; inconclusive = about -30% to -65%; inactive = above about -30%; further: on the % scale 0 is the no-effect control and ±100 the full control effect
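AlphaScreen with GST-Six1 and His-Eya2 (5X mix: 250 nM and 500 nM), glutathione donor and nickel acceptor beads; buffer 50 mM Tris pH 8.0, 300 mM NaCl, 1 mM TCEP; 1 h at 37 C in the dark.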
TRPML1 inh = qHTS for Inhibitors of the Human Mucolipin Transient Receptor Potential 1 (TRPML1). Mucolipin-1 (Homo sapiens), Q9GZU1. TRPML1-inducible cells, Ca2+ dye fluorescence, FDSS; active compounds read low; inhibition of EC80 agonist-evoked calcium signal. activity change, negative = inhibition, % (test concentration not listed). 390,000 tested, 0.02% active. AID 624415, 2012; in the data active means activity change below about -50%; inconclusive means about -30% to -50%; inactive means above about -30%;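 further: stimulus is agonist 54-4 at its EC80 concentration; on the % scale 0 is the no-effect control and ±100 the full control effect; compound concentration not given in the record; the text of the record puts the active cut at -80%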
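TRPML1-DL cells, Tet-induced overnight (~16 h, 37 °C) at 1,500 cells/well, were loaded with Ca8 no-wash dye plus quencher for 45-90 min at room temperature. Compounds were pinned during FDSS kinetic reading; agonist 54-4 at EC80 (4 uM final) then added.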
D2 potentiator = Beta-Arrestin HTS for Positive Allosteric Modulators of the Human D2 Dopamine Receptor: Potentiators; DiscoveRx D2 beta-arrestin cells, luminescence, 90 min; 100% = 57 uM dopamine signal; potentiation, % (no concentration beside the values); 360,000 tested, 0.23% active; active = potentiation of 50% or more; inconclusive = 30% to 50%; inactive = 30% or less;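 further: compound concentration not given in the record; tested on top of an EC20 dose of dopamine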
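PathHunter beta-arrestin assay in DiscoveRx D2 cells. Compounds were added with an EC20 of dopamine (50 nM final) for 90 min at 37 deg C. Luminescence was read 1 h after detection reagent, with 57 uM dopamine as the EC100 control.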
CtBP-E1A inh = qHTS Assay for Inhibitors of the CtBP/E1A Interaction | 340,000 tested, 0.49% active | AID 651724, 2012 | CtBP / adenovirus E1A interaction (AlphaScreen) | AlphaScreen GST-E1A/His-CtBP binding, 1536-well; active compounds read low; control for the full effect not named in the record | activity change, % (test concentration not listed); in the data active means activity change below about -65%; inconclusive means about -30% to -65%; inactive means above about -30%; further: on the % scale 0 is the no-effect control and ±100 the full control effect
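Steps: dispense buffer (Tris pH 8.0, NaCl 300 mM, TCEP 1 mM, BSA, Tween 20); add 5X protein mix (GST-E1A, His-CtBP, 125 nM each); pin 23 nL compound; 2 h at 37 °C, dark; add 5X beads (50 ug/mL); 1 h; read.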
TRPV1 potentiator = HTS Assay for Compounds that Act as Potentiators of the Vanilloid Receptor 1. potentiation, % at 8.33 µM. Transient receptor potential cation channel subfamily V member 1 (Homo sapiens), Q8NER1. 320,000 tested, 0.02% active. TRPV1-expressing cells, Fluo-8 calcium influx, capsaicin EC20 potentiation; host cell line not named in the record; control for the full effect not named in the record. AID 540277, 2011; active means potentiation above 80%; inconclusive means 30% to 80%; inactive means below 30%; further: 0% is about no effect
Target sequence (Q8NER1 whole entry, looked up): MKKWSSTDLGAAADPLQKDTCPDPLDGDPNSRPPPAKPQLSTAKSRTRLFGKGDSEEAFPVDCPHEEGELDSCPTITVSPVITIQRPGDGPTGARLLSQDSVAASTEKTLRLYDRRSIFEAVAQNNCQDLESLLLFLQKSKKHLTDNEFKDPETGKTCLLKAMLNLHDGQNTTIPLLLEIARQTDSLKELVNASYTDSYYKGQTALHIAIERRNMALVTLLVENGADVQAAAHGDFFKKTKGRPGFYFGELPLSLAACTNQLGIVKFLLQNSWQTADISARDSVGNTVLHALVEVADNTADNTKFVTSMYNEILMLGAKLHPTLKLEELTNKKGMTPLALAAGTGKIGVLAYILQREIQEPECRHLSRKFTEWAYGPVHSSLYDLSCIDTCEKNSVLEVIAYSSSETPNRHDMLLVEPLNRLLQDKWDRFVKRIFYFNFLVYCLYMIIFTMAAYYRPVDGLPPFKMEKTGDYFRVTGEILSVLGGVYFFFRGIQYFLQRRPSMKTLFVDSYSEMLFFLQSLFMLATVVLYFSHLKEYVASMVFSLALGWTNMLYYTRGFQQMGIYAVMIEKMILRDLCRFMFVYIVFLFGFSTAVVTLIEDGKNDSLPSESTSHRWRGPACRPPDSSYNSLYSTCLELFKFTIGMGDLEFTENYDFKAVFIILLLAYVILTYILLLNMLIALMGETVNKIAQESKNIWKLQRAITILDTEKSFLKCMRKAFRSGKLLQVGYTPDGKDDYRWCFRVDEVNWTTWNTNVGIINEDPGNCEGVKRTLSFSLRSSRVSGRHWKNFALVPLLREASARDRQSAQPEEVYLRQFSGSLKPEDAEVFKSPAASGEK
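TRPV1-expressing cells were cultured overnight at 35.5C and loaded with Fluo-8 calcium dye for 40 to 90 min at room temperature. After a 10 s baseline, compound was added and calcium influx was read kinetically for 3 min (ex 480/em 520 nm).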
* marks the source's active call; other numbers are inactive results; ? = inconclusive; / = not tested or not shown; & = joins results of further samples.

Each structure is followed by: TRPML1 agonist	Six1-Eya2 blk	TRPML1 inh	D2 potentiator	CtBP-E1A inh	TRPV1 potentiator
- O=C(O)CCCN1C(=O)C(=O)/C(=C(/O)c2ccccc2)C1/C=C/c1ccccc1 (centres undefined)
 : -0.5	-2	10	-9	3	-12
- O=C(CSc1nnc(Cn2c(=O)sc3ccccc32)n1-c1ccccc1)N1CCOCC1
 : -0.1	0	-6	-4	10	12
- O=C(COC(=O)c1ccc(F)c(S(=O)(=O)N2CCOCC2)c1)NCc1ccco1
 : -0.3	0	-7	0	0	-10
- CCc1ccc(-n2c(SCC(=O)N3Cc4ccccc4CC3C(=O)O)nnc2-c2ccncc2)cc1 (centres undefined)
 : -0.8	-1	42	-3	2	8
- O=C(Cn1c(=O)oc2cc(S(=O)(=O)N3CCOCC3)ccc21)N1CCc2ccccc2C1
 : -0.6	-4	4	-5	-1	-9
- CCOC(=O)CC1C(=O)NCCN1S(=O)(=O)c1ccc(C)cc1 (centres undefined)
 : -0.3	11	-14	2	11	19
- CC(=O)N1c2ccc(S(=O)(=O)N(C)Cc3ccco3)cc2CC1C (centres undefined)
 : -0.9	3	-14	2	-1	2
- N=c1n(CC(=O)O)c2ccccc2n1Cc1ccccc1Cl
 : 0.3	2	-3	25	-14	30
- COc1ccc(NC(=O)[C@@H]2CCCN2S(=O)(=O)c2ccccc2F)cc1S(=O)(=O)N1CCCCC1
 : 0.5	-11	43	-6	-9	/
- COc1ccc(-c2nc(N)nc(C(F)(F)F)c2-c2ccccc2OC)c(O)c1
 : -0.6	-12	-1	2	/	-10
- COc1ccc(S(=O)(=O)NNc2nc(C)cc(C)n2)cc1[N+](=O)[O-]
 : 0.8	2	24	-24	6	-4
- CCOC(=O)n1c(=O)n(Cc2ccccc2)c2ccccc21
 : 0.7	5	-5	12	-21	7
- Cc1ccc(Cc2cnc(N3C(=N)SC(c4ccccc4)C3=O)s2)cc1 (centres undefined)
 : 1.0	-5	-14	-9	-9	6
- CC(C)CC(=O)Nc1nnc(S(=O)(=O)Nc2ccccc2)s1
 : 0.6	-2	3	-4	0	?
- COc1ccc(Cn2cc(F)c(=O)n(CCC(C)C)c2=O)cc1[N+](=O)[O-]
 : 0.1	-5	-9	0	1	-11
- CCc1nc2ccc(C(=O)NCc3ccco3)cc2nc1CC
 : 0.1	3	-7	-3	-3	-2
- N#Cc1c(NC(=O)COC(=O)c2ccc(S(=O)(=O)N3CCCC3)cc2)sc2c1CCCCC2
 : -0.4	-6	-1	-2	4	-2
- COc1cc2c(cc1OC)C(C)N(S(=O)(=O)c1cccs1)CC2 (centres undefined)
 : -0.2	-9	26	-2	6	7
- Cc1c(C)c2cc(Cl)c(OCC(=O)NCCCN3CCCC3=O)cc2oc1=O
 : -0.3	?	6	-14	-15	/
- Cc1cccc(-n2nnc(C(=O)NCc3ccc4c(c3)OCO4)c2N)c1
 : -0.6	-1	0	2	3	/
- Cc1ccc(SCCNC(=O)/C=C/c2ccccc2Cl)cc1
 : 2.7	8	11	-28	25	24
- CC1Sc2ccc(S(=O)(=O)CCC(=O)N3CCN(c4ccccc4F)CC3)cc2NC1=O (centres undefined)
 : -1.4	-1	24	-18	1	-10
- CCOc1cccc2sc(Nc3nc4ccc(NC(C)=O)cc4s3)nc12
 : -0.2	4	16	4	9	9
- S=C1SCN(CC2CC2)CN1CC1CC1
 : -1.0	3	2	0	7	6
- O=C(CNC(=O)c1ccccc1F)N/N=C/c1cccs1
 : /	2	/	-9	-4	?
- COn1c(SC(C)C)nc2ccccc2c1=O
 : 1.5	4	9	-13	9	0
- Nc1nc(N2CCN(Cc3ccccc3)CC2)n[nH]1
 : -0.4	17	-12	?	-13	-20
- CN(C(=O)c1ccc(NC(=O)Cc2cccc([N+](=O)[O-])c2)cc1)C1CC1
 : 0.3	25	-3	-3	/	7
- O=C(CNC(=O)c1ccccc1)NCCc1nc2ccccc2[nH]1
 : -0.1	-3	11	-14	4	-3
- CN(Cc1cn(Cc2ccccc2)nn1)C1CN(Cc2cn(Cc3ccccc3)nn2)S(=O)(=O)C1 (centres undefined)
 : -0.9	6	/	/	9	/
- COc1ccccc1CNS(=O)(=O)CCNC1CC1
 : -0.7	-1	-7	-5	-2	/
- Fc1ccc(-n2c(-c3ccco3)nc3nc4ccccc4nc32)cc1
 : -1.1	11	-10	7	4	-15
- COCCCNC(=O)C[C@H]1C[C@H](C(=O)N2CCCCC2)[C@@]2(C)c3[nH]c4ccc(Cl)cc4c3CCN2C1=O
 : -0.7	1	3	/	-4	/
- Cc1ccc(NC2=NC(C(=O)Nc3ccc(C)c(C)c3)CC(=O)N2)cc1 (centres undefined)
 : 0.2	4	-1	-7	3	-5
- CC1CCCC(C)N1C(=O)Cn1c(SCC(=O)Nc2ccc3c(c2)OCO3)nc2ccccc21 (centres undefined)
 : 4.4	1	19	-12	0	-13
- Cc1nnc(SCC2=C(C(=O)O)N3C(=O)C(NC(=O)C(C)n4nc(C(F)(F)F)cc4C)C3SC2)s1 (centres undefined)
 : 0.2	-13	22	-9	2	4
- CCc1ccc(C(=O)CN2CCSC2=N)cc1
 : 0.0	-7	30	-3	-12	7
- N#Cc1cccc(Nc2c3c(nc4ccccc24)CCC3)c1
 : 0.4	-11	5	-3	-4	-4
- COc1cccc(C2=CC(=O)CC(C)(C)C2)c1OC
 : -0.3	2	7	-3	4	-24
- COc1ccccc1CNC(=O)CN(C)CC(=O)Nc1ccccc1Br
 : 1.5	19	-8	-4	25	/
- CCOc1ccc(CCNC(=O)COC(=O)COc2ccccc2C)cc1OCC
 : -0.3	1	2	-12	1	26
- COc1ccc(NC(=O)CN(c2ccccc2)S(=O)(=O)N(C)C)cc1OC
 : -0.5	-13	-2	0	6	-1
- O=C(NC(=S)Nc1ccc(S(=O)(=O)N2CCCCC2)cc1)c1ccc(Cl)cc1
 : 0.3	-13	9	-2	11	-8
- CSC(=NC1CCCCC1)NS(=O)(=O)c1ccccc1
 : 1.4&-1.3	2&12	5&-8	-6&-10	6&2	-9
- O=C(O)/C=C(\Oc1ccccc1)C1(O)CCCCC1
 : -0.6	11	-1	-12	/	/
- O=C(N1CCOCC1)N1CCN(S(=O)(=O)c2ccc(Cl)cc2)C1
 : 0.3	-7	-9	-7	4	-13
- COc1ccccc1CNC(=O)CCN=C1NS(=O)(=O)c2ccccc21
 : 0.4	2	2	-3	0	-2
- COc1ccc(CN2CCN(C(=O)c3cc(C4CC4)nn3-c3ccccc3)CC2)cc1F
 : -0.6	-2	51	-13	/	1
- COc1cccc(/C=C/C(=O)OCC(=O)NCC2CCCO2)c1 (centres undefined)
 : -1.3	3	7	-6	9	-2
- COc1ccc2[nH]cc(C(=O)CN3CC(C)CC(C)C3)c2c1 (centres undefined)
 : 0.9	0	14	-3	0	-1
- Cc1ccc(CNC(=O)CCC2CCCN(Cc3cccc4c3OCO4)C2)o1 (centres undefined)
 : 0.4	1	3	-13	-4	-13
- CN(CC(=O)N1CCOCC1)S(=O)(=O)c1cc(Cl)ccc1Cl
 : -0.1	7	-11	-5	-15	2
- CC(=C1C(=O)c2ccccc2C1=O)N1CCN(C/C=C/c2ccccc2)CC1
 : 1.9	-3	-8	-9	-15	4
- Cc1oc(-c2cccc(Cl)c2)nc1CN1CCC(C(=O)NCCCN2CC(C)CC(C)C2)CC1 (centres undefined)
 : 0.3	6	5	-10	/	8
- O=S(=O)(c1ccccc1F)N1CCN(CCc2ccccc2)CC1
 : -1.3	1	1	-14	-2	-2
- CCCCn1c(N)c(N(CCOC)C(=O)CCNC(=O)c2ccccc2Cl)c(=O)[nH]c1=O
 : 0.0	3	36	-7	7	-10
- COC(=O)c1ccc(Nc2ncnc3c2cnn3-c2cccc(C)c2)cc1
 : 0.2	11	-7	-2	0	-16
- Cc1ccccc1NC(=O)C1CCN(C(=O)NC2CCCCC2)CC1
 : 0.2	-1	11	-8	-17	0
- O=C(CSc1nc2c([nH]c3ccccc32)c(=O)n1-c1ccccc1)N1CCOCC1
 : -0.7&-0.4	-2	-1&-14	-1	8	11
- CCOCCCNc1nc2c(c(=O)n(C)c(=O)n2C)n1CCCc1ccccc1
 : 1.8	-4	6	-7	3	5

Going on with the list:
Each structure is followed by: TRPML1 agonist	Six1-Eya2 blk	TRPML1 inh	D2 potentiator	CtBP-E1A inh	TRPV1 potentiator
- Cc1cc(C)c(NC(=O)CSCc2c(C)noc2C)c(C)c1
 : 5.4	2	13	-12	6	10
- Cn1cnc([N+](=O)[O-])c1SCC(O)CN1CCCCC1 (centres undefined)
 : 0.1	0	-5	-9	/	4
- COc1cccc(OC)c1C(=O)Nc1cc(Cl)ccc1N1CCOCC1
 : -0.6	0	-1	2	3	?
- O=C(c1cc(COc2cccc(C(F)(F)F)c2)on1)N1CCc2ccccc2C1
 : 4.7	25	13	-15	-4	/
- CC1=CC(C)(C)N(S(=O)(=O)c2ccc(C)cc2)c2cc(C)ccc21
 : 1.2	11	61	-17	3	13
- CSCCC(NS(=O)(=O)c1ccc2c(c1)c(=O)n(C)c(=O)n2C)C(=O)NC1CCN(Cc2ccccc2)CC1 (centres undefined)
 : -0.3	-3	-18	-2	3	-1

Structural class: those above with a cyano group.
Each structure is followed by: TRPML1 agonist	Six1-Eya2 blk	TRPML1 inh	D2 potentiator	CtBP-E1A inh	TRPV1 potentiator
- N#Cc1c(NC(=O)COC(=O)c2ccc(S(=O)(=O)N3CCCC3)cc2)sc2c1CCCCC2
 : -0.4	-6	-1	-2	4	-2
- N#Cc1cccc(Nc2c3c(nc4ccccc24)CCC3)c1
 : 0.4	-11	5	-3	-4	-4

Bioassay records as filed in PubChem BioAssay.

Not a hit list. Share with any hit: about 0.95%.
